# Source: PubChem (Broad Institute)
# A1 apoptosis 2 = compounds inhibiting A1, read as caspase activation; MEF A1-2A-BIM cells, caspase-Glo luminescence, 3 h; percent of clofoctol response, DMSO zero; caspase activation, % (no concentration beside the values); 24,000 tested, under 10 active; in the data active = caspase activation above about 5.9%;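 also: wells of about 30 µL received 50 nL stock; the first replicate is given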
#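 system = A1-2A-BIM-expressing MEF cells | quantity = 2500 MEF cells/well | dosing = 50 nL compound per well, pinned | schedule = overnight cell settling, then 3 h compound exposure, 37 °C | signal = luminescence from DEVD-luciferin Caspase-Glo reagent, 1:1 in 50 mM HEPES, 1 h RT | read-out = Caspase-3/7 activation, seen as rise in luminescence signal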
# The depositor's hits bear a star; & = joins results of further samples. These rows are one share of the data; the hit share may differ from the screen's.
SMILES,A1 apoptosis 2
COc1ccc(NC(=O)Nc2ccc3c(c2)C(=O)N([C@H](C)CO)C[C@H](C)[C@H](CN(C)S(=O)(=O)c2ccc(Cl)cc2)O3)cc1,0.4
C[C@H](CO)N1C[C@H](C)[C@H](CN(C)C(=O)NC2CCCCC2)Oc2ccc(NC(=O)CCCCCC(=O)Nc3ccccc3N)cc2C1=O,1.0
C[C@H]1CN([C@@H](C)CO)C(=O)c2cccc(N(C)C)c2O[C@@H]1CN(C)Cc1ccc(C(F)(F)F)cc1,2.0
C[C@@H]1CCCCO[C@@H](CN(C)C(=O)Nc2ccc(F)cc2)[C@@H](C)CN([C@H](C)CO)C(=O)c2cc(NC(=O)CCCN(C)C)ccc2O1,0.8
C[C@@H]1CN([C@H](C)CO)C(=O)c2cc(NC(=O)Nc3ccccc3)ccc2O[C@H]1CN(C)S(=O)(=O)c1ccccc1,0.6
COc1ccc(NC(=O)Nc2ccc3c(c2)CC(=O)N([C@@H](C)CO)C[C@H](C)[C@H](CN(C)C)O3)cc1,-0.8
C[C@H]1CN([C@@H](C)CO)C(=O)c2cccc(NC(=O)C3CCCCC3)c2O[C@@H]1CN(C)Cc1ccncc1,-0.2
COc1ccc(NC(=O)N(C)C[C@H]2OCCCC[C@@H](C)Oc3ccc(NC(=O)Nc4cccc5ccccc45)cc3C(=O)N([C@@H](C)CO)C[C@H]2C)cc1,-2.1
C[C@H](CO)N1C[C@H](C)[C@H](CN(C)C(=O)Nc2ccccc2)Oc2ccc(NS(=O)(=O)c3ccc(F)cc3)cc2CC1=O,2.2
CC1(C)[C@H]2CC=C(/C=N\NC(=O)c3ccccn3)[C@@H]1C2,-0.7
C[C@@H]1CCCCO[C@H](CN(C)C(=O)Cc2ccccc2)[C@@H](C)CN([C@@H](C)CO)C(=O)c2cc(NS(=O)(=O)c3ccc(Cl)cc3)ccc2O1,-0.9
C[C@H](CO)N1C[C@H](C)[C@H](CN(C)C(=O)Nc2ccc(F)cc2)Oc2ccc(NC(=O)NC3CCCCC3)cc2C1=O,-2.6
C[C@H](CO)N1C[C@H](C)[C@@H](CN(C)C(=O)CCCN(C)C)OCCCC[C@H](C)Oc2ccc(NS(=O)(=O)c3ccccc3)cc2C1=O,-0.4
C[C@@H]1CCCCO[C@H](CN(C)S(=O)(=O)c2ccc(Cl)cc2)[C@@H](C)CN([C@@H](C)CO)C(=O)c2cc(NC(=O)Nc3ccccc3)ccc2O1,2.0
COc1ccc(NC(=O)Nc2ccc3c(c2)C(=O)N([C@@H](C)CO)C[C@@H](C)[C@H](CN(C)C(=O)c2ccccc2)OCCCC[C@@H](C)O3)cc1,-0.2
C[C@H]1CN([C@@H](C)CO)C(=O)c2cc(NC(=O)Nc3cccc4ccccc34)ccc2O[C@@H]1CN(C)C(=O)NC1CCCCC1,0.7
Cc1noc(C)c1S(=O)(=O)Nc1ccc2c(c1)C(=O)N([C@@H](C)CO)C[C@H](C)[C@@H](CN(C)C)O2,1.4
COc1ccc(NC(=O)N(C)C[C@@H]2Oc3ccc(NC(=O)Nc4ccc5c(c4)OCO5)cc3C(=O)N([C@@H](C)CO)C[C@H]2C)cc1,-0.4
C[C@H](O)[C@H](O)[C@@H](O)[C@@H](O)/C=N/NC(=O)CCCCCCC(=O)Nc1ccccc1O,0.4
C[C@@H]1CN([C@H](C)CO)C(=O)CCCn2nncc2CO[C@@H]1CN(C)C,-0.1

# Reprinted from the part before: five compounds; new compounds follow.
SMILES,A1 apoptosis 2
C[C@H]1CN([C@@H](C)CO)C(=O)c2cc(NC(=O)Nc3cccc4ccccc34)ccc2O[C@@H]1CN(C)C(=O)NC1CCCCC1,0.7
Cc1noc(C)c1S(=O)(=O)Nc1ccc2c(c1)C(=O)N([C@@H](C)CO)C[C@H](C)[C@@H](CN(C)C)O2,1.4
COc1ccc(NC(=O)N(C)C[C@@H]2Oc3ccc(NC(=O)Nc4ccc5c(c4)OCO5)cc3C(=O)N([C@@H](C)CO)C[C@H]2C)cc1,-0.4
C[C@H](O)[C@H](O)[C@@H](O)[C@@H](O)/C=N/NC(=O)CCCCCCC(=O)Nc1ccccc1O,0.4
C[C@@H]1CN([C@H](C)CO)C(=O)CCCn2nncc2CO[C@@H]1CN(C)C,-0.1
C[C@H](CO)N1C[C@H](C)[C@@H](CN(C)Cc2ccc(C(F)(F)F)cc2)Oc2c(NC(=O)C3CCOCC3)cccc2C1=O,0.0
C[C@@H]1CN([C@H](C)CO)C(=O)c2cccc(NC(=O)C3CCCCC3)c2O[C@@H]1CN(C)Cc1ccc(Cl)c(Cl)c1,-0.4
CNC[C@@H]1Oc2ccc(N(C)C)cc2CC(=O)N([C@@H](C)CO)C[C@H]1C,-0.8
COc1ccc(NC(=O)N(C)C[C@@H]2Oc3ccc(NC(=O)Cc4cn(C)c5ccccc45)cc3C(=O)N([C@H](C)CO)C[C@H]2C)cc1,1.0
Cc1ccc(S(=O)(=O)N(C)C[C@@H]2OCCCC[C@H](C)Oc3ccc(NS(=O)(=O)c4ccc(Cl)cc4)cc3C(=O)N([C@H](C)CO)C[C@@H]2C)cc1,-1.1
Cc1noc(C)c1S(=O)(=O)Nc1ccc2c(c1)C(=O)N([C@@H](C)CO)C[C@H](C)[C@H](CN(C)S(=O)(=O)c1cn(C)cn1)OCCCC[C@H](C)O2,0.3
C[C@@H]1CN([C@H](C)CO)C(=O)c2cccc(NC(=O)c3ccncc3)c2O[C@@H]1CN(C)Cc1ccc(Oc2ccccc2)cc1,-1.2
CC(C)NC(=O)Nc1ccc2c(c1)C(=O)N([C@H](C)CO)C[C@H](C)[C@H](CN(C)C)O2,-0.3
C[C@H](CO)N1C[C@H](C)[C@@H](CN(C)S(=O)(=O)c2cccs2)Oc2ccc(NS(C)(=O)=O)cc2C1=O,-0.5
C[C@H](CO)N1C[C@H](C)[C@H](CN(C)CC2CCCCC2)Oc2ccc(NC(=O)Nc3ccc4c(c3)OCO4)cc2CC1=O,-0.1
C[C@@H]1CCCCO[C@@H](CN(C)S(=O)(=O)c2cn(C)cn2)[C@H](C)CN([C@H](C)CO)C(=O)c2cc(NC(=O)Nc3ccc4c(c3)OCO4)ccc2O1,0.3
C[C@H](CO)N1C[C@H](C)[C@H](CN(C)S(=O)(=O)c2ccccc2)Oc2c(NC(=O)CCCCCC(=O)Nc3ccccc3N)cccc2C1=O,-0.3
CC(C)NC(=O)Nc1ccc2c(c1)C(=O)N([C@H](C)CO)C[C@@H](C)[C@H](CN(C)CC1CCCCC1)OCCCC[C@H](C)O2,-0.5
C[C@H]1CN([C@@H](C)CO)C(=O)c2cc(NS(=O)(=O)c3ccc(Cl)cc3)ccc2O[C@@H]1CN(C)C,-0.9
C[C@H]1CCCCO[C@H](CN(C)C(=O)CCC(F)(F)F)[C@@H](C)CN([C@@H](C)CO)C(=O)c2cc(NC(=O)c3ccccc3)ccc2O1,0.4
C[C@@H]1CCCCO[C@H](CN(C)C(=O)Nc2cccc3ccccc23)[C@@H](C)CN([C@H](C)CO)C(=O)c2cc(NC(=O)Nc3cccc4ccccc34)ccc2O1,2.3
C[C@@H]1CCCCO[C@@H](CN(C)S(=O)(=O)c2ccc(Cl)cc2)[C@@H](C)CN([C@@H](C)CO)C(=O)c2cc(NC(=O)Nc3ccc(F)cc3)ccc2O1,0.1
COc1ccc(S(=O)(=O)N(C)C[C@H]2Oc3ccc(NS(=O)(=O)c4cccs4)cc3C(=O)N([C@H](C)CO)C[C@@H]2C)cc1,-0.9
COc1ccc(S(=O)(=O)N(C)C[C@@H]2OCCCC[C@@H](C)Oc3ccc(NC(=O)NC(C)C)cc3C(=O)N([C@@H](C)CO)C[C@H]2C)cc1,0.9
COc1ccc(NC(=O)N(C)C[C@H]2Oc3c(NC(=O)Nc4ccc5c(c4)OCO5)cccc3C(=O)N([C@@H](C)CO)C[C@@H]2C)cc1,-1.3
C[C@H](CO)N1C[C@H](C)[C@H](CN(C)C(=O)Nc2ccc(-c3cccs3)cc2)OCc2cn(nn2)CCCC1=O,-0.2
C[C@@H]1CN([C@@H](C)CO)C(=O)c2cc(NC(=O)C3CCCCC3)ccc2O[C@@H]1CN(C)Cc1ccc(-c2ccccc2)cc1,0.4
C[C@@H]1CCCCO[C@@H](CN(C)C(=O)CCC(F)(F)F)[C@@H](C)CN([C@H](C)CO)C(=O)c2cc(NS(=O)(=O)c3ccccc3)ccc2O1,-0.2
Cc1noc(C)c1NC(=O)Nc1ccc2c(c1)C(=O)N([C@@H](C)CO)C[C@@H](C)[C@H](CN(C)S(=O)(=O)c1ccc(Cl)cc1)O2,-0.5
COc1ccc(CN(C)C[C@H]2Oc3ccc(NS(=O)(=O)c4ccc(OC)cc4)cc3CC(=O)N([C@@H](C)CO)C[C@H]2C)cc1,0.5
COc1ccc(CN(C)C[C@@H]2OCCCC[C@@H](C)Oc3ccc(NC(=O)Nc4ccc5c(c4)OCO5)cc3C(=O)N([C@H](C)CO)C[C@H]2C)cc1,-0.4
C[C@@H]1CN([C@H](C)CO)C(=O)CCCn2cc(nn2)CO[C@H]1CN(C)C(=O)Nc1ccccc1F,-1.8
C[C@@H]1CN([C@H](C)CO)C(=O)c2cccc(NC(=O)Nc3ccc(C(F)(F)F)cc3)c2O[C@@H]1CN(C)Cc1ccc(-c2ccccc2)cc1,-0.2
C[C@H](CO)N1C[C@H](C)[C@@H](CN(C)C(=O)NC2CCCCC2)Oc2c(NC(=O)c3ccncc3)cccc2C1=O,0.0
Cc1noc(C)c1NC(=O)Nc1ccc2c(c1)C(=O)N([C@H](C)CO)C[C@@H](C)[C@H](CN(C)C(=O)Nc1ccc(C(F)(F)F)cc1)OCCCC[C@H](C)O2,1.8
C[C@H](CO)N1C[C@H](C)[C@@H](CN(C)Cc2ccc(C(F)(F)F)cc2)Oc2ccc(NC(=O)Cc3ccccc3)cc2C1=O,-0.3
C[C@@H]1CN([C@H](C)CO)C(=O)Cc2cc(NS(C)(=O)=O)ccc2O[C@H]1CN(C)S(=O)(=O)c1ccccc1,0.6
C[C@H](CO)N1C[C@H](C)[C@@H](CN(C)S(=O)(=O)c2cccs2)Oc2ccc(NC(=O)c3ccncc3)cc2CC1=O,-0.8
C[C@H]1CN([C@@H](C)CO)C(=O)c2cc(NC(=O)Cc3cn(C)c4ccccc34)ccc2O[C@H]1CN(C)C(=O)Nc1cccc2ccccc12,0.0
C[C@@H]1CCCCO[C@@H](CN(C)C(=O)Nc2ccccc2)[C@H](C)CN([C@H](C)CO)C(=O)c2cc(NC(=O)NC3CCCCC3)ccc2O1,1.1
CCO[C@H]1OC(C(=O)N2CCN(C)CC2)=C[C@@H](c2ccc(Br)cc2)[C@@H]1CCCO,1.2
C[C@@H]1CN([C@H](C)CO)C(=O)CCCn2nncc2CO[C@@H]1CN(C)C(=O)c1ccc(N2CCN(C)CC2)cc1,0.0
Cc1noc(C)c1NC(=O)Nc1ccc2c(c1)C(=O)N([C@@H](C)CO)C[C@H](C)[C@@H](CN(C)C)O2,-0.4
C[C@@H]1CN([C@H](C)CO)C(=O)Cc2cc(NC(=O)NC3CCCCC3)ccc2O[C@@H]1CN(C)S(=O)(=O)c1cccs1,-0.9
C[C@H]1CN([C@@H](C)CO)C(=O)Cc2cc(NC(=O)Nc3ccc4c(c3)OCO4)ccc2O[C@@H]1CN(C)S(=O)(=O)c1ccccc1,-1.3
Cc1noc(C)c1NC(=O)Nc1ccc2c(c1)CC(=O)N([C@H](C)CO)C[C@@H](C)[C@@H](CN(C)S(C)(=O)=O)O2,-0.4
C[C@@H]1CCCCO[C@H](CN(C)C)[C@@H](C)CN([C@H](C)CO)C(=O)c2cc(NC(=O)Cc3ccccc3)ccc2O1,-0.3
C[C@@H]1CN([C@H](C)CO)C(=O)c2cc(NS(C)(=O)=O)ccc2O[C@H]1CN(C)C(=O)Nc1cccc2ccccc12,-0.7
Cc1noc(C)c1NC(=O)N(C)C[C@H]1Oc2ccc(NC(=O)Cc3cn(C)c4ccccc34)cc2CC(=O)N([C@H](C)CO)C[C@H]1C,0.7
O=C(C1=C[C@@H](c2ccccc2)C[C@@H](OCc2ccc(CO)cc2)O1)N1CCN(Cc2ccc3c(c2)OCO3)CC1,0.2&0.3
COc1ccc(NC(=O)Nc2ccc3c(c2)C(=O)N([C@@H](C)CO)C[C@@H](C)[C@H](CN(C)S(=O)(=O)c2ccc(C)cc2)OCCCC[C@@H](C)O3)cc1,-0.2
CC(C)NC(=O)N(C)C[C@H]1OCCCC[C@@H](C)Oc2ccc(NC(=O)CCC(F)(F)F)cc2C(=O)N([C@H](C)CO)C[C@@H]1C,0.7
COc1ccc(NC(=O)Nc2ccc3c(c2)C(=O)N([C@H](C)CO)C[C@H](C)[C@@H](CN(C)Cc2ccc(C(=O)O)cc2)OCCCC[C@@H](C)O3)cc1,1.1
COc1ccc(S(=O)(=O)N(C)C[C@@H]2Oc3ccc(NC(=O)Cc4cn(C)c5ccccc45)cc3CC(=O)N([C@H](C)CO)C[C@@H]2C)cc1,-0.8
C[C@H](CO)N1C[C@H](C)[C@@H](CN(C)S(=O)(=O)c2ccccc2)Oc2ccc(NS(=O)(=O)c3cn(C)cn3)cc2C1=O,-0.8

# Quoted at random: two compounds from above
SMILES,A1 apoptosis 2
C[C@H](CO)N1C[C@H](C)[C@H](CN(C)C(=O)Nc2ccc(-c3cccs3)cc2)OCc2cn(nn2)CCCC1=O,-0.2
COc1ccc(S(=O)(=O)N(C)C[C@@H]2Oc3ccc(NC(=O)Cc4cn(C)c5ccccc45)cc3CC(=O)N([C@H](C)CO)C[C@@H]2C)cc1,-0.8
